# KCNQ2 inh: KCNQ2 channel blockers in CHO-K1 cells – cell-based, FluxOR thallium flux, B-score, primary screen (AID 2156). O88943. 20 min; stronger effect = lower value; only compounds with negative scores are shown here; some inactives read as strong as hits. B-score at 10 µM. hit rate 1.1% among 310,000;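 active means fluorescence ratio B-score at most minus 3 library SDs, with starting brightness B-score within 2 library SDs, cut at about -5.5 in these data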
# Target sequence (O88943 whole entry, looked up): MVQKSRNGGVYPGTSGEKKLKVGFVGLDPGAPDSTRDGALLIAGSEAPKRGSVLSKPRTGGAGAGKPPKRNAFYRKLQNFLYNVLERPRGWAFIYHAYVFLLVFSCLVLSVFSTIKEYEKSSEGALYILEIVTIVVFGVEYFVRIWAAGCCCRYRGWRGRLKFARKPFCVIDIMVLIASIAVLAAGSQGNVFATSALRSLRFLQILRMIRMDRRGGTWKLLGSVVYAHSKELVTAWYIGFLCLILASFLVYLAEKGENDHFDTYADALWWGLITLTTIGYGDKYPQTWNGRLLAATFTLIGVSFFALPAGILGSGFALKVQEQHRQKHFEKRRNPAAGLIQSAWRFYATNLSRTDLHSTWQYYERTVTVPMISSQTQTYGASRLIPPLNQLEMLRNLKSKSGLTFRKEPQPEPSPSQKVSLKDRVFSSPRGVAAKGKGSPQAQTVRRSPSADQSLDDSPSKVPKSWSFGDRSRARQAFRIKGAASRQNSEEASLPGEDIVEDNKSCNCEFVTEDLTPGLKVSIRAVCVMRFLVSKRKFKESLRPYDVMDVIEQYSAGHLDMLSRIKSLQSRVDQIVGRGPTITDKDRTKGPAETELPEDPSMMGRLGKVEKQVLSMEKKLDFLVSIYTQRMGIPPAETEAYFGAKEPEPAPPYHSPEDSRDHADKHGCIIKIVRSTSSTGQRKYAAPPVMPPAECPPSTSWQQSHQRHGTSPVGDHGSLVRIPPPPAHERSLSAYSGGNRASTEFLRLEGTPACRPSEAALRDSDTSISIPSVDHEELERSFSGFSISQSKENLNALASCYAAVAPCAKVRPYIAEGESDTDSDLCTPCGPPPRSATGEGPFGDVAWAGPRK
# KCNQ2 inh baseline: also measured in KCNQ2 inh; calls as there; B-score; measured here: initial fluorescence intensity artifact check;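 brightness before thallium and not channel activity; 0 = typical well and far values either way flag optical interference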
# Starred values were filed as active, the others as inactive; i = inactive. Only part of the results is shown (hit frequency here may not be typical).
SMILES,KCNQ2 inh,KCNQ2 inh baseline
COC(=O)c1[nH]c2cccc(OC)c2c1NC(=O)CCN1CCC(C(N)=O)CC1,i,1.65
CN=c1sc2ccccc2n1CC(O)COCc1ccco1 (stereo not drawn),i,1.49
COc1ccc(/C=C2\CC/C(=C\c3ccc(OC)c(OC)c3)C2=O)cc1OC,i,-1.67
O=C(Nc1c(F)cc(F)cc1Br)c1ccco1,i,0.21
O=C(/C=N\O)NCCCNCc1ccccc1,i,2.45
COc1ccc(N(CC(=O)NCCC2=CCCCC2)S(=O)(=O)c2ccccc2)c(OC)c1,i,-1.13
Cc1nn(C(=O)c2c(-c3ccccc3)noc2C)c(C)c1N=Nc1cc(C(F)(F)F)cc(C(F)(F)F)c1,i,2.19
CS(=O)(=O)Nc1nc2n(n1)C(c1ccccc1)CC(c1ccccc1)N2 (stereo not drawn),i,-1.37
CCN(CC)CC(=O)Nc1ccc(C)cc1C(=O)c1ccccc1,i,-0.21
c1ccc(NC2=NCCCCS2)cc1,i,1.96
O=C(NC1CCC(c2ccccc2)CC1)c1cccnc1 (stereo not drawn),i,-0.02
CN(C)CCCN(C(=O)c1ccc2c(c1)OCCO2)c1nc2ccc(Cl)cc2s1,i,0.29
Cc1cc(C(=O)O)ccc1-c1ccc(/C=C2\SC(=O)N(CC(=O)Nc3ccc4c(c3)OCO4)C2=O)o1,i,4.27
COc1cccc(OCCCCCN2CCOCC2)c1,i,0.77
CCc1ccc(NC(=O)CSc2nc3nc(C)cc(C)n3n2)cc1,i,-1.2
CC(C)CC(=O)N1CC(C)N(C(=O)CC(C)C)CC1C (stereo not drawn),i,-0.72
c1ccc2c(Nc3ccc(N4CCOCC4)cc3)nc(N3CCOCC3)nc2c1,i,-0.04
CCOC(=O)CC1=CSC2=NS(=O)(=O)CCN12,i,-0.67
O=S(=O)(Cc1ccccc1)/C1=C(\N2CCOCC2)CCCCCC1,i,0.42
CC(=O)c1cccc(NC(=O)N2CCCCCC2)c1,i,1.98
COc1ccc(NC(=O)CCN2CCN(c3ccccc3F)CC2)c(OC)c1,i,0.97
O=C(Nc1cc(N2CCOCC2)ncn1)c1ccc(F)cc1,i,-1.04
CC(C)[C@H](NC(=O)OC(C)(C)C)C(=O)N1CCC(C(=O)N[C@@H](C)C(=O)Nc2ccc(F)cc2)CC1,i,0.57
CCOc1c(/C=C(\C#N)C(N)=O)c2ccccc2n1CC,i,-2.16
COc1cccc(N2C(=O)CC(Sc3nc(C)cc(C)n3)C2=O)c1 (stereo not drawn),i,-0.09

# Other structures:
SMILES,KCNQ2 inh,KCNQ2 inh baseline
Cc1ccc(S(=O)(=O)NC2CC(C)(C)NC(C)(C)C2)cc1,i,-1.78
CCn1c(NC(C)=O)c(-c2ccccc2Cl)c(=O)c2ccccc21,i,2.64
C#CCOC(=O)CCC(=O)NCCc1ccccc1,i,0.94
Cc1cccc(C)c1NC(=O)CSc1nc(COc2ccccc2)nc2ccccc12,i,1.63
CC(=O)C1=C(O)C(=O)N(CCNCCO)C1c1ccccc1 (stereo not drawn),i,1.93
ON1C(c2ccccc2)CC2(O)c3nonc3CCC12 (stereo not drawn),i,-0.07
CCc1ccc(OCCOCC(O)CNC(C)CC)cc1 (stereo not drawn),i,0.47
COc1ccc(Oc2c(Cl)cnn(-c3ccc(Cl)c(Cl)c3)c2=O)cc1,i,-0.2
COc1ccccc1C(=O)N/C(=C/c1ccc(Br)cc1)C(=O)NCC(=O)O,i,2.64
COc1ccc(-c2noc(N3CCCC(C(=O)Nc4ccccc4F)C3)n2)cc1 (stereo not drawn),i,-0.36
NC(=O)c1ccc(SCC(=O)OCC(=O)N2CCCCC2)c([N+](=O)[O-])c1,i,0.02
COc1ccccc1NC(=O)C1=C(C)Nc2nc(CCCO)nn2C1c1cccnc1 (stereo not drawn),i,0.67
Cc1cc(C(=O)NNC(=O)c2ccc(S(=O)(=O)N(C)C)cc2)c(C)o1,i,2.02
CSCc1ccc(C(=O)NC(C)c2cnn(-c3ccccn3)c2C)o1 (stereo not drawn),i,-2.03
Cc1cccc(NC(=O)CCNC(=O)c2ccco2)c1C,i,-0.09
C[N+](C)(C)CCOc1ccc([N+](=O)[O-])cc1,i,-0.81
Cc1cc(C)n2nc(CCCO)nc2n1,i,2.59
COc1cccc(NC(=O)COc2c(F)c(F)c(C(F)(F)F)c(F)c2F)c1,i,-0.81
Cc1ccc(NC(=O)c2ccc3c(c2)N(CC(=O)N2CCCCC2)C(=O)C(C)(C)O3)cc1,-7.89*,-0.42*
Cc1ccc(S(=O)(=O)Cn2nnnc2C(CC(C)C)N2CCN(C3CCCC3)CC2)cc1 (stereo not drawn),i,1.56
CCCOc1cccc(C2C(C(=O)c3ccco3)=C(O)C(=O)N2CCCn2ccnc2)c1 (stereo not drawn),i,-0.27
Cc1nn(-c2ccc(F)cc2F)c2c1-c1nc(N3CCCC3)ncc1CC2,i,0.46
O=C(NCc1cccc(F)c1)C1CCC(=O)N(CCc2cccc(F)c2)C1 (stereo not drawn),i,-0.99
CCOC(=O)COn1c(=O)c(-c2ccco2)[n+]([O-])c2ccccc21,i,0.59
CCCN1C(=O)C(Cc2nc3ccccc3c(=O)n2-c2ccccc2)c2ccccc21 (stereo not drawn),i,-0.35

# New compounds follow.
SMILES,KCNQ2 inh,KCNQ2 inh baseline
Cc1cc(=O)[nH]c(SCc2nnc(-c3ccccc3)o2)n1,i,0.12
COc1ccc(CCNC(=O)Cc2cc(OCc3ccccc3)c(OC)cc2[N+](=O)[O-])cc1OC,i,-0.11
COCCn1c(SCC(=O)N2CCCc3ccccc32)nc2cccnc21,i,-0.14
O=C(O)Cc1ccc(C(=O)CSc2ccccc2)s1,i,-0.54
CCCCOc1ccc(N2CC(C(=O)NCCc3ccc(OC)c(OC)c3)CC2=O)cc1 (stereo not drawn),i,1.54
COC(=O)c1ccsc1NC(=O)CN1C(=O)CCC1=O,i,0.06
O=C(Nc1ccc(S(=O)(=O)Nc2nccs2)cc1)c1ccc(F)c(S(=O)(=O)N2CCOCC2)c1,i,-0.04
CCOc1ncccc1C(=O)Nc1cccc(-c2nc3cccnc3s2)c1,i,-1.85
CCc1cc2c(SCC(=O)Nc3cc(C)on3)ncnc2s1,i,-1.57
COC(=O)C1=CN(Cc2ccc(C)cc2)C=C(C(=O)OC)C1c1ccc(F)c(F)c1,i,-0.35
CCOCCCNC(=O)c1cccc(NC(=O)C2=C(C)OCCS2)c1,i,0.02
Cc1cc(OC(=O)c2ccc(Cl)cc2)cc(=O)n1C,i,1.65
O=C1c2ccccc2C(=O)N1CCSc1ccccc1,i,3.96
CCC(C)(C)n1nnnc1C(c1ccccc1)N1CCN(Cc2ccccc2)CC1 (stereo not drawn),i,-2.21
COc1ccccc1C(=O)N(Cc1ccco1)C1CCS(=O)(=O)C1 (stereo not drawn),i,0.43
Cn1cccc1CC(=O)NNC(=O)Nc1ccc(F)cc1,i,-1.53
CCC(C(=O)Nc1nccs1)c1ccccc1 (stereo not drawn),i,-0.63
Cc1nc(-c2ccccc2)sc1C(=O)/C=C/c1ccccc1,i,0.49
COc1ccccc1N1C(N)=NC(N)=NC1(C)C,i,3.33
CSCC[C@H](NC(=O)OC(C)(C)C)C(=O)N1CCC(C(=O)N[C@H](C(=O)O)C(C)C)CC1,i,-0.54
O=C(CSc1nncn1-c1ccccc1)Nc1c(F)cccc1F,i,-0.4
COc1cccc(CCNC(=O)CC2C(=O)NCCN2Cc2ccc(Cl)c(F)c2)c1 (stereo not drawn),i,0.8
COc1cccc(C(=O)/C=C/Nc2cccc(O)c2)c1,i,0.01
COc1ccc(NC(=S)N2CCC(NC(=O)C3CCCCC3)CC2)cc1,i,2.09
COc1ccc(OC)c(S(=O)(=O)N2CCCC(N3CCN(c4ccccc4)CC3)C2)c1 (stereo not drawn),i,1.77

# Carrying on:
SMILES,KCNQ2 inh,KCNQ2 inh baseline
COc1ccc(OC)c(-c2cc(C(=O)Nc3ccccc3C(N)=O)c3ccccc3n2)c1,i,0.11
CC(=O)O/N=C/c1c(Cl)n(C)c2ccccc12,i,-0.07
CCCCNC(=O)O/N=C(\N)CS(=O)(=O)C(C)(C)C,i,1.37
COc1ccc(CNC(=O)CN(Cc2ccc(F)cc2)C(=O)CCC(=O)Nc2nccs2)cc1,i,0.07
CC(NC(=O)Cc1cccs1)c1ccc2c(c1)OCO2 (stereo not drawn),i,0.06
CC(=O)Nc1ccc(NC(=O)Nc2ccccc2C)cc1,i,-0.4
CCSc1cc(N2CCCC2)nc(-c2cccc(C)c2)n1,i,2.13
O=C(C1=C(c2ccccc2)C(=O)c2ccccc2C1=O)c1ccccc1,i,0.02
Cc1ccc(S(=O)(=O)/C(C#N)=C/c2ccccc2OCc2ccccc2)cc1,i,-1.13
O=C(CN1CCN(c2ccccc2)CC1)N1CCc2ccccc21,i,-0.4
N#CCC(=O)NCC1(c2ccccc2)CCCC1,i,1.87
CCSc1nnc(CCNC(=O)OC(C)(C)C)o1,i,-1.43
CCN(c1ccccc1)S(=O)(=O)c1cc(C(=O)Nc2ccc(F)c(F)c2)ccc1F,i,-2.19
Cc1ccc(C)c(NC(=O)COC(=O)CNC(=O)c2ccccc2Cl)c1,i,-0.29
COC(=O)c1ccc(COc2ccc(-c3nn[nH]n3)cc2)cc1,i,0.82
COc1ccc(C(=O)NCCS(=O)(=O)NCc2ccccc2)cc1,i,0.07
O=C(CCN1CCN(c2ccccc2)CC1)N/N=C/c1ccccc1O,i,-0.02
O=C(NCC(=O)N1CCN(c2ccccc2)CC1)c1ccco1,i,0.8
Cc1nn(C(=O)c2ccoc2C)c(N)c1-c1ccccc1,i,2.81
CCCC1Cc2[nH]c(=O)c(C#N)cc2CO1 (stereo not drawn),i,-0.53
CC(C)N1CCC(N2CCN(C/C=C/c3ccccc3)CC2CCO)CC1 (stereo not drawn),i,0.62
C=CCn1c(COc2ccccc2)nnc1SCC(=O)O,i,-1.05
C/C(=N\NC(=O)CSCc1ccc(Cl)cc1)c1ccc2c(c1)OCCO2,i,1.34
CCn1c(CSc2nnc(-c3ccncc3)n2CCOC)nc2cc(C(=O)O)ccc21,i,-0.49
COc1ccc(-c2nc3c(s2)CN(S(C)(=O)=O)CC3)cc1OC,i,-0.38

# (list continues)
SMILES,KCNQ2 inh,KCNQ2 inh baseline
O=C(OCc1c(Cl)cccc1Cl)c1cccnc1Cl,i,-0.69
COc1ccc(NC(=O)C2CSC(C)(C)N2C=O)cc1 (stereo not drawn),i,0.04
O=C(COc1ccc(Cl)cc1)NC(=S)Nc1ccccc1N1CCOCC1,i,-0.43
Cn1c(=O)oc2cc(S(=O)(=O)N3CCC(C(=O)NCc4ccc(F)cc4)CC3)ccc21,i,0.12
C=CCNC(=S)NNC(=O)COc1ccc(Br)cc1,i,3.14
CC(CCc1ccccc1)NC(=O)CNC(=S)N(Cc1cccs1)C1CCCC1 (stereo not drawn),i,0.48
CCN1/C(=N\N)c2cccc3cccc1c23,i,0.36
O=C1NCC(NC(=O)C(F)(F)F)c2cc3c(cc21)OCO3 (stereo not drawn),i,-0.03
C=CCN=c1scc(C)n1/N=C/c1ccc(O)c(O)c1,i,-0.86
CC1Cc2ccccc2N1c1ncnc2c1nnn2Cc1ccccc1Cl (stereo not drawn),i,-1.86
Cc1cc(=O)oc2cc(OCC(=O)N3CCN(c4ccccc4)CC3)c(Cl)cc12,i,-1.64
Cc1ccc(-c2[nH]c3ccccc3c2SCCNC(=O)c2cc3ccccc3oc2=O)cc1,i,-0.09
O=C(CSC(=S)N1CCCCC1)c1c(F)cccc1F,i,-0.81
CCOCCCNC(=O)c1ccc(N(C)S(=O)(=O)c2ccc(OC)cc2)cc1,i,-1.2
O=C(NCc1ccc2c(c1)OCO2)c1cc(-c2ccc(Cl)cc2Cl)on1,i,1.56
CCn1cc(C(=O)N[C@H](C(=O)NCCCOC)C(C)C)c(=O)c2cc3c(cc21)OCO3,i,-2.75
Cc1ccc(CN2CC34C=CC(O3)C(C(=O)NCc3ccc5c(c3)OCO5)C4C2=O)cc1 (stereo not drawn),i,-0.13
CSc1nc2n(n1)C(c1ccccn1)C1=C(CC(C)(C)CC1=O)N2 (stereo not drawn),i,0.22

# Source: PubChem BioAssay
